# Bioassay records: PubChem, several laboratories
# Mtb betalactam: beta-lactam sensitization of Mtb H37Rv; M. tuberculosis H37Rv growth with meropenem, percent inhibition; hits of this screen are not shown here; inhibition, % at 25 µM; 0.27% of 330,000 active;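 active = about 74% or more and at least 40 points above the plate without the antibiotic, then above 30% in a dose series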;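 note: growth measured after seven days incubation then overnight dye step; 0% = bacteria only wells and 100% = bacteria with antibiotic; twin plates without the antibiotic show which effects depend on it; some results filed as inactive read as strong as hits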
# Mtb H37Rv: M. tuberculosis H37Rv growth inhibitors, H37Rv strain (AID 1626) | M. tuberculosis H37Rv growth inhibition; higher % means a stronger effect | inhibition, % at 10 µM; hits with a dose series show IC50 in µM | 0.95% of 220,000 active;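 active = confirmed in a dose series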;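 note: bacteria incubated seven days before Alamar blue readout; 0% = bacteria only wells and 100% = bacteria with antibiotic wells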
# Arbovirus inh: antivirals against arbovirus infection. arbovirus infection cell-based antiviral screen. inhibition, % at 10 µM. 0.37% of 200,000 active. AID 1251;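 active = inhibition from about 30%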;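 note: bluetongue infection of BSR cells; cell survival read as ATP light after 72 h; 0% = infected wells without compound and 100% = uninfected wells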
# RecA splice inh: blocks M. tuberculosis RecA intein splicing; AID 2221; cell-free RecA intein splicing, fluorescence; inhibition, %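 (about 9 µM by stock and volumes)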; 0.75% of 290,000 active; in the data active = inhibition above about 30%;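 note: 0% = vehicle wells and 100% = reference inhibitor control wells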
# Target sequence (P9WHJ3 whole entry, looked up, canonical isoform): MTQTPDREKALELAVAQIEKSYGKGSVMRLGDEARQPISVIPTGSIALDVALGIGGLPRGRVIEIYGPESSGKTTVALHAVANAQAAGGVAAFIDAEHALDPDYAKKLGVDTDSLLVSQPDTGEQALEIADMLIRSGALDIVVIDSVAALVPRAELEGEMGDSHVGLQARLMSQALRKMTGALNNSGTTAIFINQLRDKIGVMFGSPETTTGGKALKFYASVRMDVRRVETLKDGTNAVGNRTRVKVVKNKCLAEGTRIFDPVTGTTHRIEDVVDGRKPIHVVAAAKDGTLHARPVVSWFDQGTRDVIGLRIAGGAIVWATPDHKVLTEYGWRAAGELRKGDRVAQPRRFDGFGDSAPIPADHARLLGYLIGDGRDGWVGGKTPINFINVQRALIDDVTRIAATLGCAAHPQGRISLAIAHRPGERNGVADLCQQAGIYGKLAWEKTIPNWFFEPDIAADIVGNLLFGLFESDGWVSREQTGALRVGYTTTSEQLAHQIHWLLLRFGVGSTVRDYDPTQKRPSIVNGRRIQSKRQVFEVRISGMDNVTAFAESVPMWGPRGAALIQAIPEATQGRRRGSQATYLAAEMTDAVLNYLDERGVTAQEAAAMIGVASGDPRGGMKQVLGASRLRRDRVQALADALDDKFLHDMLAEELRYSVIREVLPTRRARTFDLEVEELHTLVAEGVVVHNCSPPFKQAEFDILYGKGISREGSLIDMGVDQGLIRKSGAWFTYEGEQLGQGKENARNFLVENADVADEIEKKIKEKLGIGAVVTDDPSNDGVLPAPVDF
# YopH PTP inh: blocks Yersinia enterocolitica YopH tyrosine phosphatase; fluorescence Ex485/Em525; inhibition, %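 (about 10 µM by stock and volumes)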; 0.16% of 140,000 active; AID 898;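 active = inhibition of 50% or more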;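 note: controls were vehicle for no effect and minimum signal wells for full effect; inactives centre near -20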
# Arbovirus inh repeat: further read-out of Arbovirus inh, marked with its call; inhibition, %; measured here: 10K subset replicate screen; many hits read low in the repeat;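 first of two repeat runs on a subset; 0% = infected and 100% = uninfected wells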
# * = called active by the depositor; . = no result given. This is a subset; the hit share may differ from the screen's.
SMILES,Mtb betalactam,Mtb H37Rv,Arbovirus inh,RecA splice inh,YopH PTP inh,others
CCOC(=O)C(=Cc1ccc(-n2ccnc2)cc1)C(=O)OCC,36,-1%,4,1.5,.,
Cc1occc1C(=O)NNC(=S)NCc1ccccc1,1,4%,6,-3.5,-19,
O=C(NCC(c1cccs1)N1CCOCC1)c1ccccc1NS(=O)(=O)c1ccc(Cl)cc1 (centres undefined),-7,-13%,19,2.5,-10,
C/C(=N\n1nnnc1Nc1ccccc1)c1ccc(N)cc1,-1,-2%,-4,0.9,-24,
O=C(CN1CCN(c2ccc(Cl)cc2)CC1)N1CCCC1,-11,-2%,-1,-3.3,-25,
Fc1ccc(CN2CCN3CCCC3C2C2CCCCC2)cc1F (centres undefined),-6,0%,6,.,-4,
CCOC(=O)c1cnc(SC)nc1Oc1cccc(NS(=O)(=O)c2ccc(Cl)cc2)c1,-6,-8%,-21,1.7,-29,
CCCn1c(=O)n(N)c2ccccc21,1,-4%,2,1.3,-9,
O=C(NCC1CCCN1S(=O)(=O)c1cccs1)c1cccc(Cl)c1 (centres undefined),4,.,.,2.1,.,
Cc1nc(SCc2ccccc2)c2ccsc2n1,0,9%,9,8.8,.,
CN(C)C(=O)c1c(-c2ccccc2)oc2ccc(O)cc12,2,-3%,-6,-0.1,-42,
Cc1c(NC(=S)NC(NC(=O)C(C)(C)C)C(Cl)(Cl)Cl)c(=O)n(-c2ccccc2)n1C (centres undefined),-3,-3%,-4,-1.5,-21,
CCOc1ccc(C(=O)C[n+]2ccccc2C)cc1,-6,-13%,-3,-4.0,-14,
COc1cccc2c1O/C(=N\O)C(C(=O)Nc1cccc(C)c1C)C2 (centres undefined),-2,.,.,-3.8,.,
CC1=Nc2ccc(C)c3nc(C)cc(c23)N1c1ccc(C)cc1,10,1%,21,-94,-2,
COc1ccccc1C(CCN(Cc1cccs1)C(C)=O)c1ccco1 (centres undefined),9,-2%,-6,19,-13,
COc1ccc(S(=O)(=O)NCCC(=O)NCc2ccccc2)cc1,-15,4%,5,1.6,-16,
Cc1[nH]nc(N=CC2=C(O)CC(C)(C)CC2=O)c1-c1ccc(Cl)cc1,0,-2%,-8,-4.5,-24,
O=S(=O)(NCc1ccc(F)cc1)c1ccc(-c2cnc(C3CC3)o2)cc1,-9,.,.,-5.7,.,
CCn1c(CC(=O)Nc2ccc(C)cc2)nnc1SCC(=O)NCc1ccccc1,5,-11%,-2,0.1,-31,
CCC(=O)NCCc1nc2ccccc2[nH]1,-1,-6%,6,-1.4,-16,
CC(C)c1ccc(N2C(=O)/C(=C/N(C)C)SC2=S)cc1,4,-4%,.,9.4,.,
Cn1c(CC2Sc3ccccc3NC2=O)nnc1SCC(=O)c1ccc(Cl)cc1 (centres undefined),-6,-8%,.,1.7,.,
CCc1ccc(OCc2nnc(SCC(=O)Nc3cccc(C(=O)N4CCOCC4)c3)o2)cc1,-5,-4%,1,1.1,-29,
O=C(Cc1ccccc1)NN1CCCCC1,-5,.,.,1.5,.,
CCOc1ccc(NC(=S)N2CCc3cc(OC)c(OC)cc3C2COc2ccc3c(C)cc(=O)oc3c2)cc1 (centres undefined),-6,0%,-11,0.2,-22,
CCOc1ccc(OCC)c(-c2c(=O)n(OCc3ccc(Cl)cc3)c3ccccc3[n+]2[O-])c1,1,9%,-2,.,-32,
CCOC(=O)c1ccc(NC2c3ccccc3C(=O)N2c2ccc(C)cn2)cc1 (centres undefined),-1,4%,-8,-1.2,-19,
CC(C)CC(=O)NC(=S)Nc1ccc(F)cc1F,-4,3%,-5,-1.3,.,
Cc1c(CNCCC2=CCCCC2)c(C(=O)O)c(C)n1Cc1ccccc1,-4,2%,7,0.9,.,
CC1CCCC(C)N1C(=O)Cn1cc(/C=C2/C(=O)Nc3ccccc32)c2ccccc21 (centres undefined),96,14%,-3,2.7,-9,
C=CCSc1nc(C)c(CC(=O)OCC(C)C)c(=O)[nH]1,-13,-5%,0,-1.4,-31,
COc1ccccc1OCC(=O)Nc1ccc(S(=O)(=O)N2CCCCCC2)cc1,0,0%,-6,8.4,-23,Arbovirus inh repeat=3
Cc1cccc(NS(=O)(=O)c2ccc(C(=O)N3CCC3)cc2)c1C,-6,.,.,-0.2,.,
C/C(=N\Nc1cccc2cccnc12)c1ccc(C)cc1,69,-8%,5,17,.,
O=C(NCCOc1ccccc1)c1cc2ccccc2o1,-7,12%,5,4.8,-38,
CCOC(=O)N1CCN(CC(=O)Nc2ccc(F)c(F)c2)CC1,-1,-4%,3,4.4,.,
COc1ccc(C(=S)N(C)C)cc1OC,-8,-8%,-2,.,-19,Arbovirus inh repeat=1
Cn1nc(C(=O)Nc2nc3ccccc3[nH]2)ccc1=O,-6,-5%,3,-0.7,.,
COc1ccccc1OCCCOc1ccc([N+](=O)[O-])cc1Cl,-2,4%,1,10,-38,
CN(C)S(=O)(=O)n1cc(/C=C(\NC(=O)c2ccccc2Cl)C(=O)NCCCn2ccnc2)c2ccccc21,5,.,.,0.8,.,
O=C(COc1ccccc1)n1nc(-c2ccc(Cl)cc2)nc1NCc1ccco1,-1,-4%,-13,-1.3,-11,
COc1ccc(OCCCn2cc(/C=C3/C(=N)N4C=C(C)SC4=NC3=O)c3ccccc32)cc1,7,0%,-8,-2.5,-31,
C=C1C(O)(c2ccccc2)C2CC[N+]1(C)CC2 (centres undefined),5,-7%,14,2.0,0,
CCO/N=C(\C)c1c(O)cc(C(C)C)n(-c2ccccc2)c1=O,2,4%,6,-0.7,-34,
Cc1ccc(N(CC(=O)N(C)Cc2ccccc2)S(C)(=O)=O)cc1C,-5,.,.,2.7,.,
COc1ccc(OC)c(NC(=O)Cc2coc3ccc(C)cc23)c1,11,4%,4,7.1,1,
CCOc1cccc(-c2c(C(=O)N/N=C(\C)c3cccs3)nnn2-c2nonc2N)c1,-2,.,.,0.0,.,
CN1CCN(c2ccc(NC(=O)c3ccc4ccccc4c3)cc2)CC1,1,.,.,1.8,.,
CCCN1C(=O)c2ccccc2NC1c1ccc(OC)c(CSc2ccccn2)c1 (centres undefined),-4,-2%,-9,1.1,-30,
COc1ccc(S(=O)(=O)NCCc2csc(C)n2)cc1C,3,-5%,3,0.0,3,
O=C(NCCc1ccc(F)cc1)c1cccc(NC(=O)c2ccccc2)c1,1,.,.,-2.1,.,
O=C(NCCc1ccccc1)C1CCCN(S(=O)(=O)c2cccnc2)C1 (centres undefined),-10,-10%,11,3.1,-28,
Cn1ncc(N=Cc2ccc([N+](=O)[O-])cc2)c1C(=O)N1CCOCC1,-3,-1%,1,-1.0,-11,
COc1ccc(/C=C/C(=O)Nc2cc(C)on2)cc1,-2,7%,-11,-1.8,-13,
Cc1cccc(C(=O)NCc2ccc(S(N)(=O)=O)cc2)c1[N+](=O)[O-],3,12%,-2,-2.6,-8,
CCCc1cc(=O)oc2cc(OCC(=O)NCc3ccccn3)ccc12,-8,.,.,0.7,.,
COc1cc2ccccc2cc1C(=O)Nc1ccc(O)cc1,3,.,.,-3.6,.,
O=C(O)CCCNC(=O)/C(=C\c1ccc(Cl)cc1)NC(=O)c1ccccc1Br,-8,-2%,3,-8.6,.,
CCOC(=O)c1cnn(CCOC(=O)c2ccccc2)c1NC(=O)c1ccccc1,-5,-13%,4,-2.6,-9,

# (cont.)
SMILES,Mtb betalactam,Mtb H37Rv,Arbovirus inh,RecA splice inh,YopH PTP inh,others
O=C(CSCCOc1ccccc1)NCc1ccncc1,-3,-4%,.,-0.8,.,
CCOc1ccccc1CN1CCN(Cc2ccc3cc(F)ccc3n2)CC1CCO (centres undefined),0,.,.,1.2,.,
CCOC(=O)N1CCN(C(=O)CSCc2ccccc2)CC1,-1,8%,0,2.2,-39,
COc1cc(C(=O)NCC2CCCO2)ccc1OCc1c(C)noc1C (centres undefined),-5,1%,-1,-0.9,-20,
O=C(NCCN1CCOCC1)c1ccc(=O)n(Cc2ccc(Cl)cc2)c1,-6,-7%,5,1.6,.,
O=C(CSc1ncn(-c2ccccc2)n1)Nc1nc(-c2ccccc2)cs1,-2,3%,-3,-0.8,-4,
Cc1ccc(NC(=O)CSc2n[nH]c(C)c2[N+](=O)[O-])cc1,0,74%,5,-3.0,-21,
COC(=O)CSc1nnc(-c2ccccc2OC)o1,92,2%,0,-0.1,-26,
Cc1ccc(C)c(-n2nnnc2Sc2nnnn2-c2ccccc2)c1,29,7%,-38,71*,-31,
CCOc1cc(NC(=O)C2CCCCC2)c(OCC)cc1NC(=O)c1ccccn1,13,6%,5,-2.9,.,
Fc1ccc(C2N(c3ccccc3)C(=S)N3CCCN23)cc1 (centres undefined),-10,-1%,.,-1.2,.,
Cc1ccc(-n2nnnc2SCC(=O)NNC(=O)c2ccco2)c(C)c1,-9,-5%,9,-2.1,-22,
CCOC(=O)N1CCN(CC(=O)N2CCC(C(N)=O)CC2)CC1,-13,3%,-1,-0.4,.,
COc1ccc(-n2nc3c(c2NC(=O)COc2cccc(OC)c2)CS(=O)(=O)C3)cc1,-12,.,.,-3.2,.,
CC1(N2CCOCC2)CC2(O)C(=[N+]1[O-])CCc1nonc12 (centres undefined),1,-5%,2,60*,-21,
CC1Nc2ncnc(N3CCN(c4ccccc4)CC3)c2N(Cc2ccccc2)C1=O (centres undefined),-6,.,.,0.6,.,
COc1cc(C(=O)Nc2sc3c(c2C(=O)O)CCC3)cc(OC)c1OC,18,.,.,-0.5,.,
O=C(Nc1cc(Sc2ccccn2)cc([N+](=O)[O-])c1)c1ccc(Cl)cc1,0,8%,-4,-0.3,-54,
Cc1ccc(NC(=O)c2ccccc2-c2ccccc2C(=O)O)cc1C,19,1%,-8,0.5,.,
NC(=O)c1nsc(C(=O)N(c2ccccc2F)C(C(=O)NCc2ccccc2)c2ccc(O)cc2)c1N (centres undefined),-5,.,.,-2.9,.,

# As a short view, 18 of the compounds above:
SMILES,Mtb betalactam,Mtb H37Rv,Arbovirus inh,RecA splice inh,YopH PTP inh,others
CCOC(=O)N1CCN(C(=O)CSCc2ccccc2)CC1,-1,8%,0,2.2,-39,
COc1cc(C(=O)NCC2CCCO2)ccc1OCc1c(C)noc1C (centres undefined),-5,1%,-1,-0.9,-20,
O=C(NCCN1CCOCC1)c1ccc(=O)n(Cc2ccc(Cl)cc2)c1,-6,-7%,5,1.6,.,
O=C(CSc1ncn(-c2ccccc2)n1)Nc1nc(-c2ccccc2)cs1,-2,3%,-3,-0.8,-4,
Cc1ccc(NC(=O)CSc2n[nH]c(C)c2[N+](=O)[O-])cc1,0,74%,5,-3.0,-21,
COC(=O)CSc1nnc(-c2ccccc2OC)o1,92,2%,0,-0.1,-26,
Cc1ccc(C)c(-n2nnnc2Sc2nnnn2-c2ccccc2)c1,29,7%,-38,71*,-31,
CCOc1cc(NC(=O)C2CCCCC2)c(OCC)cc1NC(=O)c1ccccn1,13,6%,5,-2.9,.,
Fc1ccc(C2N(c3ccccc3)C(=S)N3CCCN23)cc1 (centres undefined),-10,-1%,.,-1.2,.,
Cc1ccc(-n2nnnc2SCC(=O)NNC(=O)c2ccco2)c(C)c1,-9,-5%,9,-2.1,-22,
CCOC(=O)N1CCN(CC(=O)N2CCC(C(N)=O)CC2)CC1,-13,3%,-1,-0.4,.,
COc1ccc(-n2nc3c(c2NC(=O)COc2cccc(OC)c2)CS(=O)(=O)C3)cc1,-12,.,.,-3.2,.,
CC1(N2CCOCC2)CC2(O)C(=[N+]1[O-])CCc1nonc12 (centres undefined),1,-5%,2,60*,-21,
CC1Nc2ncnc(N3CCN(c4ccccc4)CC3)c2N(Cc2ccccc2)C1=O (centres undefined),-6,.,.,0.6,.,
COc1cc(C(=O)Nc2sc3c(c2C(=O)O)CCC3)cc(OC)c1OC,18,.,.,-0.5,.,
O=C(Nc1cc(Sc2ccccn2)cc([N+](=O)[O-])c1)c1ccc(Cl)cc1,0,8%,-4,-0.3,-54,
Cc1ccc(NC(=O)c2ccccc2-c2ccccc2C(=O)O)cc1C,19,1%,-8,0.5,.,
NC(=O)c1nsc(C(=O)N(c2ccccc2F)C(C(=O)NCc2ccccc2)c2ccc(O)cc2)c1N (centres undefined),-5,.,.,-2.9,.,

# Next part:
SMILES,Mtb betalactam,Mtb H37Rv,Arbovirus inh,RecA splice inh,YopH PTP inh,others
Cc1cc(S(=O)(=O)N2CCN(c3c(C)cccc3C)CC2)ccc1F,-7,-1%,17,13,-12,
CCOC(=O)c1sc(-c2ccccc2)cc1NC(=O)Nc1ccc([N+](=O)[O-])cc1,-3,2%,-23,-1.5,-11,
Cn1c(=O)c2c([nH]c(=O)n2C)n(C)c1=O,6,-7%,4,-1.1,-15,
CC(C)Cc1ccc(C(C)C(=O)OCC(=O)c2c[nH]c3ccccc23)cc1 (centres undefined),0,-3%,-29,.,-5,
Cc1cc(NC(=O)CSc2nc3cc(C)c(C)cc3cc2C)no1,-3,.,.,2.1,.,
CCn1cc(C(=O)NCCCO)c(=O)c2cc(F)c(N3CCN(C)CC3)cc21,-1,.,.,-0.6,.,
